Screening results from PubChem BioAssay.
KCNQ2 enhance: potentiators of rat KCNQ2 potassium channel; 310,000 compounds, 0.54% hits; CHO-K1 KCNQ2, FluxOR thallium flux fluorescence; active compounds read high; AID 2239, 2010; Potassium voltage-gated channel subfamily KQT member 2 (Rattus norvegicus), O88943; B-score at 10 µM;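 active = fluorescence ratio B-score at least 3 SD of library B-scores, with initial fluorescence B-score within 3 SD, cut at about 5.3 in these data; same plate scores as AID 2156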;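 also: B-score of peak minus minimum over baseline fluorescence ratio after K+ and Tl+ stimulus; positive B-score means potentiation of KCNQ2 with more thallium influx and brighter signal; only the inactives scoring about 0 or higher are listed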
Target sequence (O88943 whole entry, looked up): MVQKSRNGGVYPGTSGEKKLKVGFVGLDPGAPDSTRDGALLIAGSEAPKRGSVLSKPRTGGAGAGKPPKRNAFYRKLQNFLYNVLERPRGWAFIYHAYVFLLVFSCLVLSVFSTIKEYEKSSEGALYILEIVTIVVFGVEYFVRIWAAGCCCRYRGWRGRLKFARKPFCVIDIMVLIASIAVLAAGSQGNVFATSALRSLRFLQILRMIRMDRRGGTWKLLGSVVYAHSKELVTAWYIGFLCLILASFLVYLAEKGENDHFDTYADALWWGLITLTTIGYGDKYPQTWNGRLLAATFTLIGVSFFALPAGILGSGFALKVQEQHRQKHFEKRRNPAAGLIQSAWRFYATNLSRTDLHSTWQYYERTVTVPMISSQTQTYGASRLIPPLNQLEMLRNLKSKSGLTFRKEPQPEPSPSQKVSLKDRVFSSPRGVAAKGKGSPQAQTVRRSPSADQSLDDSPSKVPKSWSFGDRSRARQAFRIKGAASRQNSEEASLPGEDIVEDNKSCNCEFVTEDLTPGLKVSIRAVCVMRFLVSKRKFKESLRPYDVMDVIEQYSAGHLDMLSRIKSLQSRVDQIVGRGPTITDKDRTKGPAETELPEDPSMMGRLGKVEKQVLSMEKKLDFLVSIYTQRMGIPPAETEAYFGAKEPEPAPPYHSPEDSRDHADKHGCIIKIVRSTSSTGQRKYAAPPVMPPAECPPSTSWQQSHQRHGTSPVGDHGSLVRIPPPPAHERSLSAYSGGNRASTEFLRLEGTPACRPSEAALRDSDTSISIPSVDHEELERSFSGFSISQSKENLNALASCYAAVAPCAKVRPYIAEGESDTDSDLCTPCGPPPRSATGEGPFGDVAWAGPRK
KCNQ2 enhance baseline: second read-out of KCNQ2 enhance, no call of its own (marks repeat the call); B-score; compound at 10 µM; measured here: initial fluorescence intensity artifact check;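 brightness before thallium and not channel activity; 0 = typical well and far values either way flag optical interference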
* = called active by the depositor; x = not tested or not shown.

SMILES	KCNQ2 enhance	KCNQ2 enhance baseline
O=C(O)COc1ccc(-c2nnn(Cc3ccccc3F)n2)cc1	0.61	0.53
O=C(Nc1ccccc1)NC1(C(=O)NCc2ccco2)CCCCC1	0.27	1.24
CC1CCN(CCCNC(=O)c2n[nH]c(=O)c3ccccc23)CC1	0.58	1.16
CCCOc1ccc(N2C(=O)CC(N(CCOC34CC5CC(CC(C5)C3)C4)C(C)=O)C2=O)cc1 (stereo not given)	0.24	-0.81
O=C(Nc1cccc(C(=O)N2CCOCC2)c1)c1ncn[nH]1	2.25	-0.14
CCC(C)Nc1cc(C)c(C#N)c2nc3ccccc3n12 (stereo not given)	0.59	0.09
O=C(NCc1ccccn1)c1ccc(Cn2cc(C(F)(F)F)ccc2=O)cc1	0.5	1.33
Cc1ccc(-c2c(C(=O)N/N=C/c3cccnc3)nnn2-c2nonc2N)cc1	2	-0.47
CCOC(=O)c1c(C)[nH]c(C(=O)OCC(=O)Nc2cccnc2Cl)c1C	1.38	-0.03
O=C(c1cccc(N2C(=O)C3C4C=CC(C4)C3C2=O)c1)N1CCN(c2ccccc2Cl)CC1 (stereo not given)	0.49	0
CCCOc1ccc(N2C(=O)CC(SC(=NCC)NCC)C2=O)cc1 (stereo not given)	1.68	-3.43
CC(C)(C)S(=O)(=O)c1cnc(N2CCOCC2)nc1N	1.52	0.92
CN(CC#CC(O)(c1ccccc1)c1ccccc1)C(C)(C)C	0.33	-1.39
CC(C)(OC(=O)NC(=O)C(F)(F)F)C(C)(C)OC(=O)NC(=O)C(F)(F)F	0.63	0.26
CCn1nc(C)cc1C(=O)N(C)C1CCCN(Cc2ccccc2F)C1 (stereo not given)	0.29	0.2
COc1ccccc1NC(=O)CN1CCCCC1	2.09	-1.42
COc1ccc(C(=O)O/N=C(\N)Cc2ccc(Cl)cc2Cl)cc1OC	0.88	-0.17
COc1cc(C(=O)Nc2nnc(CC(C)(C)C)s2)c([N+](=O)[O-])cc1OC	0.37	-0.57
CCCCSc1ccc(NC(=O)c2cccnc2)cc1	0.9	-0.09
OC[C@@H](O)[C@H](O)C(/C=N/Nc1ccccc1)=N\Nc1ccccc1	0.09	-2.33
CC(C)(C)NC(=O)Cn1nnc(-c2ccccc2NC(=O)c2cnccn2)n1	0.34	1.53
CC(CCc1ccccc1)NC(=O)c1ccc(NC(=O)c2ccc(Cl)cc2Cl)cc1 (stereo not given)	1.42	-2.53
CC(C)(C)c1csc(NC(=O)c2ccc3nccnc3c2)n1	3.93	0.19
COc1cccc(/C(C)=N/NC(=O)c2ccc(N(C)C)cc2)c1	0.54	-0.35
COc1ccc(C(=O)Nc2n[nH]c(-c3ccncc3)n2)cc1	1.24	-3.36
COc1ccc(C(C)(C)C)cc1NC(=O)COC(=O)c1ncc(Cl)c(Cl)c1Cl	0.6	-1.84
CCOc1ccc(C2N(c3ccc(F)cc3)C(=O)C3CCCN32)cc1OC (stereo not given)	1.1	0.54
COc1ccccc1N(CC(=O)NCC1CCCO1)C(=O)CNS(=O)(=O)c1ccc(C)cc1 (stereo not given)	0.9	1.48
CCC(C)(C)n1nnnc1C(c1ccncc1)N1CCN(c2cccc(OC)c2)CC1 (stereo not given)	0.56	-1.16
Cc1csc2ncnc(N3CCN(C(=S)Nc4ccc(F)cc4F)CC3)c12	2.28	0.11
NC(=O)C(=O)N/N=C/c1c2ccccc2cc2ccccc12	0.19	1.63
C=CCSc1nnc(CSc2nc3sc4c(c3c(=O)[nH]2)CCCC4)n1-c1ccccc1	0.18	-0.98
CCOc1cccc(-c2c(C(=O)N/N=C/c3cccs3)nnn2-c2nonc2N)c1	0.54	-0.4
Cc1ccc(C(=O)NC(=S)Nc2cccnc2Cl)cc1	0.53	0.07
COC(=O)c1ccc(NS(=O)(=O)c2c(C)[nH]c(C)c2C(=O)N2CCCC2)cc1	1.27	-1.11
Cn1c(N2CCCCC2)nc2c1c(=O)[nH]c(=O)n2C	0.07	-0.68
COc1ccc(CN2CCN(C(=O)CC(C)C)CC2)cc1	0.11	-1.83
Cc1cccc(NC(=O)COc2ccc3oc4c(c3c2)CCCC4)n1	0.01	0.6
CCc1ccc(C(=O)CSc2n[nH]c(C)n2)cc1	0.03	1.14
CCOC(=O)c1c(NC(=O)CSc2nnc(-c3ccccc3C)n2C)sc(C(C)=O)c1C	0.32	1.16

Already shown: an excerpt of the list.
SMILES	KCNQ2 enhance	KCNQ2 enhance baseline
O=C(O)COc1ccc(-c2nnn(Cc3ccccc3F)n2)cc1	0.61	0.53
O=C(Nc1ccccc1)NC1(C(=O)NCc2ccco2)CCCCC1	0.27	1.24
CC1CCN(CCCNC(=O)c2n[nH]c(=O)c3ccccc23)CC1	0.58	1.16
CCCOc1ccc(N2C(=O)CC(N(CCOC34CC5CC(CC(C5)C3)C4)C(C)=O)C2=O)cc1 (stereo not given)	0.24	-0.81
O=C(Nc1cccc(C(=O)N2CCOCC2)c1)c1ncn[nH]1	2.25	-0.14
CCC(C)Nc1cc(C)c(C#N)c2nc3ccccc3n12 (stereo not given)	0.59	0.09

More results follow:
SMILES	KCNQ2 enhance	KCNQ2 enhance baseline
Cc1ccc(/C=C2\SC(=S)N(CCCC(=O)NNC(=O)c3ccccc3O)C2=O)cc1	0.42	-1.53
CN1CCN(C(=O)C(N)Cc2ccccc2)CC1 (stereo not given)	0.11	-0.33
CCCCCOc1ccc(C2C(C(=O)c3ccc(C)o3)=C(O)C(=O)N2c2cc(C)on2)cc1 (stereo not given)	0.41	0.01
NC(=O)c1cccc(C(N)=O)n1	0.53	-0.25
C=CCN1CCN(C(c2ccc(OC)c(OC)c2)c2nnnn2C(C)(C)C)CC1 (stereo not given)	0.93	0.02
CCCCC(=O)Nc1cc([N+](=O)[O-])ccc1F	0.34	0.83
O=C(Nc1cccnc1)c1cc2c(s1)-c1ccccc1OC2	0.64	0.66
CCOC(=O)N1CCN(Cc2nc3c(c(=O)n(C)c(=O)n3C)n2CCC(C)C)CC1	0.02	0.3
COc1cccc(C2CC(C(F)(F)F)n3ncc(C(=O)NCc4ccco4)c3N2)c1 (stereo not given)	0.03	-0.13
Cc1cc(C(F)F)n2nc(C(=O)Nc3sc4c(c3C(N)=O)CCC4)nc2n1	0.54	1.54
O=C(COc1ccc(Cl)cc1)Nc1ncc([N+](=O)[O-])s1	0.58	-1.12
NC(=O)c1ccc(OCC(F)(F)F)nc1	0.04	1.15
O=c1cc(NCCO)c2ccccc2o1	0.21	1.05
CC(=O)NC1=NC(=O)/C(=C/c2cn(C(C)=O)nc2-c2ccccc2)S1	1.6	0.43
Cc1ccc(C)c(NC(=S)NCCN2CCOCC2)c1	0.34	0.57
O=C(CSCCSCC(=O)c1ccco1)c1ccco1	0.22	-0.63
Cc1cc(NNC(=O)c2cccc(C(F)(F)F)c2)nc2c1c(C)nn2C	1.76	2.01
COc1ccccc1CNC(=O)COC(=O)Cc1c(F)cccc1Cl	0.07	-0.33
Cc1nc(NC(=O)CSc2nnc(-c3ccc4c(c3)OCO4)o2)c(Cl)cc1Cl	17.9*	0*
Cn1c(=O)[nH]c2ncn(C)c2c1=O	0.05	0.28
C#Cc1ccc([C@@H]2C=C(C(=O)N3CCOCC3)O[C@H](OCc3ccc(CO)cc3)C2)cc1	0.1	-0.03
C=CCn1c(CCNC(=O)c2cccs2)nnc1SCC(=O)c1cccc([N+](=O)[O-])c1	1.03	-0.99
Cc1ccc(/C=C(\NC(=O)c2ccccc2)C(=O)NCCN2CCOCC2)o1	1.02	0.04
CC(=O)Nc1ccc(Cc2nc3ccccc3[nH]2)cc1	0.27	-3.15
COc1cc2c(cc1OC)C(COc1ccccc1OC)N(C(C)=O)CC2 (stereo not given)	0.81	-0.68
O=C(CC(=O)Nc1ccccc1)Nc1ccccc1	0.21	0.11
Cc1onc(-c2c(F)cccc2Cl)c1C(=O)NCc1ccccn1	1.66	-1.2
Cc1cc(CN2C(=O)c3ccccc3C2=O)on1	1.72	0.41
COc1cccc(/C=N/NC(=O)c2ccc([N+](=O)[O-])cc2Cl)c1O	7.73*	-0.88*
Cn1cccc1C(=O)OCC(=O)N1CC(=O)Nc2ccccc21	0.27	-0.92
COc1ccc(Nc2c3c(c(C#N)c4nc5ccccc5n24)CCC3)cc1	0.33	-0.18
COc1cccc(C2CC(=O)NC3=C2C(=O)CCC3)c1 (stereo not given)	1.04	-0.71
Cc1ncc(CO)c(/C=N/Nc2ccc(C(F)(F)F)cn2)c1O	1.14	-1.95
CCS(=O)(=O)Nc1ccc(-c2nnc(SCC(=O)OC)o2)cc1	2.83	-0.94
CC(C)(C)c1nnc(NS(=O)(=O)c2cc(Cl)ccc2Cl)s1	1.86	-0.53
O=C1C2=C(SCCS2)C(=O)N1c1ccccc1	1.87	0.22
O=C(NCC1CC1)Nc1ccccc1	0.07	0.49
O=C(c1cccc(S(=O)(=O)N2CCCCC2)c1)N1CCCCC1	2.13	-0.15
N#Cc1ccccc1CSc1ccc(-c2nc3ccccc3[nH]2)cn1	1.84	0.12
COc1cc(SC)ccc1C(=O)Nc1nc2ccccc2[nH]1	1.33	-0.01
COc1ccc(C(C)NC(=O)C2CCCC2)cc1 (stereo not given)	0.43	-0.47
CC1(C)Cc2c(C#N)c(N3CCN(C(=O)c4ccccc4Cl)CC3)nc(-c3ccco3)c2CS1	0.05	1.65
CCNC(=O)c1sc2cc(C)ccc2c1Cl	0.14	0.02
Cc1onc(-c2ccccc2Cl)c1C(=O)NCCn1ccc2ccccc21	-5.59	x
C=CCOc1cccc(C2C(C(=O)c3ccco3)=C(O)C(=O)N2CCN2CCOCC2)c1 (stereo not given)	0.47	-0.45
CCN(CC)C(=O)c1sc2nc(N3CCOCC3)c3c(c2c1N)CCCC3	1.46	-0.21
CCOC(=O)c1sc(NN=C(C(=O)OC)C(=O)OC)c(C(=O)OCC)c1C	5.69*	-1.12*
O=C(Nc1ccc(Cl)cc1Cl)c1ccc(-c2ccccc2)cc1	1.15	-0.78
O=C(Nc1ccccc1C(=O)NCc1ccccc1)C1=CSCCO1	1.29	0.5
O=S1(=O)CCO[C@H]2Cc3ccccc3[C@H]2N1Cc1ccccc1	1.11	-0.02

Part of the list above in order of formula weight, low to high.
SMILES	KCNQ2 enhance	KCNQ2 enhance baseline
CCNC(=O)c1sc2cc(C)ccc2c1Cl	0.14	0.02
O=C(Nc1ccc(Cl)cc1Cl)c1ccc(-c2ccccc2)cc1	1.15	-0.78
CCN(CC)C(=O)c1sc2nc(N3CCOCC3)c3c(c2c1N)CCCC3	1.46	-0.21
CCOC(=O)c1sc(NN=C(C(=O)OC)C(=O)OC)c(C(=O)OCC)c1C	5.69*	-1.12*

Carrying on.
SMILES	KCNQ2 enhance	KCNQ2 enhance baseline
CC1(C(=O)NNC(=S)NCC2CCCO2)CC1(Cl)Cl (stereo not given)	2.11	-0.85
Cc1noc(C)c1CSCC(=O)Nc1ccc(S(=O)(=O)C(F)F)cc1	0.76	0.79
COCc1[nH]nc2c1C(c1ccnc3ccccc13)C(C#N)=C(N)O2 (stereo not given)	0.36	-1.05
Cc1ccc(NC(=O)CSc2ncn[nH]2)cc1S(=O)(=O)N1CCOCC1	0.01	-0.67
COc1ccccc1NC(=O)c1cc2c(s1)-c1ccccc1S(=O)(=O)C2	0.02	-0.36
Cc1ccc(NS(=O)(=O)c2ccc3[nH]c(=O)c(=O)[nH]c3c2)cc1Cl	1.13	-1.39
Cc1ccc(CNC(=O)C2CCCN2C(=O)Nc2ccccc2)cc1 (stereo not given)	0.05	-0.26
O=C(CSc1nnc(NC(=O)c2ccccc2[N+](=O)[O-])s1)NC1CCCC1	0.04	1.62
CC(C)c1nc2sc3c(=O)[nH]c(=S)[nH]c3c2c2c1CCC2	4.52	-0.25
O=C1c2ccccc2C(=O)N1n1c(=O)[nH]c2ccccc2c1=O	0.78	1.06
Nc1cc(=O)[nH]c(=S)n1-c1cccc(C(F)(F)F)c1	1.54	0.06
CCCN(C(=O)CSc1cc(-c2ccccc2)c2ccc(OC)cc2n1)C1CCS(=O)(=O)C1 (stereo not given)	0.98	0
Cc1ccc(C(=O)NCc2ccc3c(c2)OCO3)cc1C	1.67	-1
O=C(Nc1ccc([N+](=O)[O-])cn1)c1cccnc1	0.15	1.42
O=S(=O)(c1ccc(NCCc2c[nH]c3ccccc23)nc1)N1CCOCC1	0.57	-0.15
COc1ccc(CCNC(=O)C2CCN(S(C)(=O)=O)CC2)cc1	0.95	-1.75
Cc1noc(C)c1C(=O)Nc1ccc(Cl)cc1C(F)(F)F	1.21	-0.25
COc1ccc2c(c1)c(C(=O)CN1CCN(C(=O)c3ccco3)CC1)c(C)n2C	0.15	-0.29
Cn1c(=O)c2c(SCC(=O)NCC3CCCO3)nc(-c3ccccc3Cl)nc2n(C)c1=O (stereo not given)	1.17	0
CCC(=O)n1nc(-c2ccc(Cl)cc2)nc1N	0.03	-1.62
COc1cc(/C=C/c2[nH]c(=O)[nH]c(=O)c2[N+](=O)[O-])cc([N+](=O)[O-])c1O	1.18	0.41
COc1ccccc1NC(=O)/C(=C\c1cccs1)NC(=O)c1ccco1	0.2	0.67
COc1cccc(N2CCN(C(=O)c3cc4ccc(OC)cc4[nH]3)CC2)c1	1.23	-0.31
O=C(CS(=O)(=O)Cc1ccccc1)N1CCN(c2ccccc2F)CC1	0.52	-0.57
CO/N=C\CC(=O)Nc1ccc(Cl)c(Cl)c1	3.52	1.91
Cc1cc(S(=O)(=O)N2CCCCC2CCNC(=O)C(=O)NCc2cccnc2)ccc1F (stereo not given)	0.42	-0.05
CCN(Cc1ccncc1)C(=O)c1ccc2c(c1)S(=O)(=O)c1ccccc1C2=O	1.63	-0.71
CC(C)c1nc(SCC(=O)N2CCCc3ccccc32)c2c(=O)n(C)c(=O)n(C)c2n1	0.99	-3.26

A portion of the library. The share of hits here may be higher or lower than overall.
